Arbovirus inh: arbovirus infection inhibition. arbovirus infection cell-based antiviral screen. inhibition, % at 10 µM. 200,000 compounds, 0.37% hits;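 active means inhibition from about 30%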;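 further: bluetongue infection of BSR cells; cell survival read as ATP light after 72 h; 0% = infected wells without compound and 100% = uninfected wells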
YopH inh: inhibitors of Yersinia enterocolitica YopH tyrosine phosphatase | fluorescence Ex485/Em525 | inhibition, %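 (about 10 µM by stock and volumes)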 | 140,000 compounds, 0.16% hits | AID 898;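 active means inhibition of 50% or more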;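 further: controls were vehicle for no effect and minimum signal wells for full effect; inactives centre near -20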
RecA intein inh: Mtb RecA intein splicing inhibition | AID 2221 | cell-free RecA intein splicing, fluorescence | 290,000 compounds, 0.75% hits | inhibition, %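 (about 9 µM by stock and volumes)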 | P9WHJ3; in the data active means inhibition above about 30%; inconclusive means no clear call, values can overlap the other calls;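 further: 0% = vehicle wells and 100% = reference inhibitor control wells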
Target sequence (P9WHJ3 whole entry, looked up): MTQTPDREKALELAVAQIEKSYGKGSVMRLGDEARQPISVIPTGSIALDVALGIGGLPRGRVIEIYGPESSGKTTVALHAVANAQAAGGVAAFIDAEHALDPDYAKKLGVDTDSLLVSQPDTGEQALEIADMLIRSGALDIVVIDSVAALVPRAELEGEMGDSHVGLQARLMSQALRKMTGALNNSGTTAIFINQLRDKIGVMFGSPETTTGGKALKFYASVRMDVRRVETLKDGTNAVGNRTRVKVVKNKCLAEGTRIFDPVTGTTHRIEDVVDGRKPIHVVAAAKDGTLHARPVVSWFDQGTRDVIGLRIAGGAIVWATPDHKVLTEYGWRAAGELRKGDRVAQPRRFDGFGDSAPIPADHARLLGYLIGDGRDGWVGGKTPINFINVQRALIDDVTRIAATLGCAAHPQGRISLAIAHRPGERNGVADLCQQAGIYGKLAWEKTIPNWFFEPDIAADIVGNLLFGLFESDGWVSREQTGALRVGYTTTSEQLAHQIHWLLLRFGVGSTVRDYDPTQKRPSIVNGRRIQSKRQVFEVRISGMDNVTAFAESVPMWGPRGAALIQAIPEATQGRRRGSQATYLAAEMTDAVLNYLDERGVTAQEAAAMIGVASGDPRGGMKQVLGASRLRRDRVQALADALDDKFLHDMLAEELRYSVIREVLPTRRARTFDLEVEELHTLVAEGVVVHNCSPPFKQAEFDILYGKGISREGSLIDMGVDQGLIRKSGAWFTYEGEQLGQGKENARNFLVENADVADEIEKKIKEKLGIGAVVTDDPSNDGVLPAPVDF
Mtb bLac sens: beta-lactam sensitization of Mtb H37Rv | 330,000 compounds, 0.27% hits | M. tuberculosis H37Rv growth with meropenem, percent inhibition; hits of this screen are not shown here | inhibition, % at 25 µM | AID 434955;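 active means about 74% or more and at least 40 points above the plate without the antibiotic, then above 30% in a dose series; inconclusive means first-round hits that could not be retested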;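 further: growth measured after seven days incubation then overnight dye step; 0% = bacteria only wells and 100% = bacteria with antibiotic; twin plates without the antibiotic show which effects depend on it; some results filed as inactive read as strong as hits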
Mtb H37Rv: M. tuberculosis H37Rv growth inhibitors, H37Rv strain (AID 1626) | M. tuberculosis H37Rv growth inhibition; higher % means a stronger effect | 220,000 compounds, 0.95% hits | one-dose inhibition, % at 10 µM; IC50 in µM for titrated hits;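 active means confirmed in a dose series; inconclusive means inhibition above 80% but not taken into the dose series; inactive means below 80% or under 30% at every dose of the series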;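 further: bacteria incubated seven days before Alamar blue readout; 0% = bacteria only wells and 100% = bacteria with antibiotic wells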
Arbovirus inh repeat: also measured in Arbovirus inh; calls as there; inhibition, %; measured here: 10K subset replicate screen; many hits read low in the repeat;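 first of two repeat runs on a subset; 0% = infected and 100% = uninfected wells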
An asterisk follows results filed as active; ? = inconclusive; · = no result given.

SMILES	Arbovirus inh	YopH inh	RecA intein inh	Mtb bLac sens	Mtb H37Rv	others
O=C(CN1CCN(c2cccc(C(F)(F)F)c2)CC1)Nc1cccc(C(F)(F)F)c1	-3.5	-4.2	-2.5	12.5	12.4%
CCC1Oc2ccc(Cl)cc2N(CC(=O)O)C1=O (stereo not given)	-4.0	-24.8	-0.5	-3.0	-1.0%
COc1ccc(-n2c(=O)c3ccccc3n(Cc3ccccc3F)c2=O)cc1OC	9.6	·	-2.0	0.5	-0.1%
CCCCNCC(=O)Nc1sc(C)c(C)c1C(=O)OCC	-0.8	8.8	0.8	50.7	?
COc1cc(OC)nc(Oc2ccccc2C(=O)Oc2ccccc2Cl)n1	14.1	14.5	12.1	7.6	0.4%
Cc1cc(C)c(S(=O)(=O)C(C)C)c(=O)[nH]1	3.4	·	1.2	-6.4	2.4%
NC(=O)N/N=C/c1ccc(-n2nncc2-c2ccc(Cl)cc2)cc1	·	·	2.5	80.7	·
Cc1ccc(S(=O)(=O)N2CCN(S(C)(=O)=O)C2c2ccccc2)cc1 (stereo not given)	5.6	-3.1	0.7	5.5	-2.3%
Cc1ccc(NC(=O)c2ccccc2F)nc1	-3.9	-3.7	-0.1	-2.5	-4.7%
CC(OC(=O)/C=C/c1ccccc1)C(=O)Nc1cccc(C#N)c1 (stereo not given)	·	·	-1.7	-1.6	·
COc1ccc(C2CC(c3ccccc3OC(C)=O)=NN2C(=O)/C=C/c2ccccc2)cc1 (stereo not given)	-5.8	-31.4	0.6	7.9	-3.9%
Fc1cccc(Cl)c1COc1ccc(-c2nnco2)cc1	·	·	-0.2	8.2	·
COc1ccccc1S(=O)Cc1ccc(C(=O)NCCc2ccc(Cl)cc2)o1 (stereo not given)	4.7	·	·	4.7	1.7%
COc1cc(N)ccc1Cc1ccc(N)cc1OC	-10.0	-41.1	-1.0	15.0	-0.3%	Arbovirus inh repeat=-6.5
CCC(CC)c1nnc(NC(=O)C2COc3ccccc3O2)s1 (stereo not given)	7.8	-41.2	2.0	-4.9	-3.9%

Pulled one by one from the entries so far (2):
SMILES	Arbovirus inh	YopH inh	RecA intein inh	Mtb bLac sens	Mtb H37Rv	others
COc1ccc(C2CC(c3ccccc3OC(C)=O)=NN2C(=O)/C=C/c2ccccc2)cc1 (stereo not given)	-5.8	-31.4	0.6	7.9	-3.9%
COc1cc(N)ccc1Cc1ccc(N)cc1OC	-10.0	-41.1	-1.0	15.0	-0.3%	Arbovirus inh repeat=-6.5

Going on with the list:
SMILES	Arbovirus inh	YopH inh	RecA intein inh	Mtb bLac sens	Mtb H37Rv	others
Cn1c2ccccc2c(=O)c2c(=O)n(Cc3ccco3)c(-c3ccc(C(C)(C)C)cc3)nc21	·	·	1.2	94.1	50.6%
CSc1nn2c(C(F)(F)F)cc(C(F)(F)F)nc2c1C(N)=O	·	·	-1.3	-1.3	12.9%
O=C(Nc1ccc(S(=O)(=O)N2CCOCC2)cc1)c1ccc(F)cc1	·	·	-2.4	-5.0	·
CCOC(=O)C1C(C(=O)Nc2cccc(C(F)(F)F)c2)C1C(=O)NC(C)C (stereo not given)	1.2	·	-2.5	-4.2	-4.5%
Cc1cccc(-n2nc3c(c2NC(=O)c2ccc(Br)o2)CSC3)c1C	4.6	-42.3	·	-1.0	5.9%
Cc1noc(C)c1S(=O)(=O)Nc1cc(C(F)(F)F)ccc1N1CCOCC1	·	·	1.7	-4.5	1.8%
Cc1cccc(C)c1N=C1C(=O)Nc2ccccc21	·	·	1.5	-0.7	·
COc1ccc(OC)c(N/C(C)=C/C(=O)c2ccncc2)c1	·	·	2.9	2.9	·
Cc1nn(Cc2c(F)c(F)c(F)c(F)c2F)c(C)c1NC(=O)c1ccnn1C	·	·	-2.6	-6.9	·
COc1ccc(NC(=O)CN(C)C(=O)c2ccccc2SCC(=O)N2CCCC2)cc1	·	·	-2.2	-8.7	·
Cc1n[nH]c(=O)n1-c1ccc(C(C)(C)C)cc1	-1.9	·	-0.3	-0.4	-3.4%
FC(F)(F)c1cnc2c(c1)[nH]c(=S)n2-c1ccc(Cl)cc1	·	·	2.0	4.2	·
CCN(C(=O)CSc1nnc(Cn2nnc3ccccc32)o1)c1nc(-c2ccccc2)cs1	-6.2	-52.4	-1.0	-0.8	3.7%
Cc1cc(Cl)ccc1NC(=O)COC(=O)c1cc([N+](=O)[O-])ccc1N1CCOCC1	·	·	-2.1	-10.7	·
Cc1ccc(C(=O)NNC2=NCCC2)cc1	-1.1	3.5	1.5	1.4	-5.0%
O=C(O)c1ccc(CSc2nnc(-c3ccccc3Cl)n2-c2ccccc2)cc1	3.7	·	0.3	4.7	3.1%
Cc1ccc(S(=O)(=O)N2CCC(C(=O)N3CC(C)OC(C)C3)CC2)cc1 (stereo not given)	·	·	-4.9	-5.5	·
CC(C)C[C@H]1CNC(=O)C(=O)N1C[C@H](C)NC(=O)Cc1ccccc1	·	·	-1.1	-13.7	·
O=C(CCCNS(=O)(=O)c1cccc2nsnc12)N1CCCCC1	-3.1	-29.9	0.3	19.9	-4.3%
Cc1cc(C)cc(OCc2nnc(SCC(=O)NC3CC3)n2C)c1	·	·	-6.8	-5.9	·
COc1ccc(-c2nc(C#N)c(N3CCC(C(N)=O)CC3)o2)cc1	0.4	89.9*	0.0	19.9	0.9%
CN(C(=S)Nc1ccccc1F)C1(c2ccccc2Cl)CCCCC1=O (stereo not given)	4.6	-17.1	0.5	·	-4.4%
Cc1ccc(N2C(=O)NC(NS(=O)(=O)c3ccccc3)(C(F)(F)F)C2=O)cc1C (stereo not given)	·	·	-2.2	4.7	·
O=C(COC(=O)c1cccs1)NCCCc1ccccc1	4.4	·	1.8	-0.2	14.1%
COc1ccc(-c2ncc3ccccn23)cc1	-2.6	-6.6	2.2	-4.6	-1.6%
COC(=O)c1c(C)[nH]c(C(=O)N2CCN(c3ccc(OC)cc3)CC2)c1C	12.3	·	-2.3	-1.2	2.7%
O=C(NCc1ccccc1Cl)C1CCCN1C(=O)Nc1ccccc1 (stereo not given)	·	·	1.6	2.4	·
OCCN(Cc1ccccc1)C(=S)Nc1ccc(F)cc1	5.4	·	-0.4	-3.3	-4.0%
Cc1c([N+](=O)[O-])c(C(=O)NC2CCCCC2)nn1C	·	·	-3.0	-14.8	·
O=C(c1ccc(Br)cc1)N1CCC(C(=O)N2CCN(c3ccccc3)CC2)CC1	·	·	0.7	-0.7	·
Cc1noc(NS(=O)(=O)c2ccc(N/C=C\C(=O)c3ccccc3)cc2)c1C	0.6	·	1.0	-7.5	1.4%
Cc1cccc(NC(=S)Nc2ccc(Oc3ccccc3)cc2)n1	-1.7	-12.1	-0.7	20.2	68.0%
Cc1cc(OC(C)C(=O)NCCCn2ccnc2)c2c(C)c(C)c(=O)oc2c1 (stereo not given)	·	·	0.1	-4.1	·
CCOC(=O)c1cc(-c2ccccc2)sc1NC(=O)CN1C(=O)c2ccccc2C1=O	·	11.1	-1.3	-17.2	-7.8%
COC(=O)c1c(C(=O)OC)c2ccccn2c1C(=O)c1ccc([N+](=O)[O-])cc1	·	·	1.3	6.3	·
CCOC(=O)N1CCN(C(=O)CSc2nnc(Cn3c(=O)sc4ccccc43)n2C)CC1	-0.2	-20.4	·	-6.9	1.0%	Arbovirus inh repeat=-1.3
CC(C(=O)NC1CCCCCC1)n1cc([N+](=O)[O-])cn1 (stereo not given)	·	·	1.1	-4.3	·
CCc1cc2c(=O)c(-c3cnn(-c4ccccc4)c3)c(C)oc2c(CN2CCCCC2)c1O	-14.3	-24.7	-0.8	98.5	?
O=C(O)c1ccc(NC(=O)c2ccccc2Br)c(NC(=O)c2ccccc2Br)c1	·	·	0.2	3.5	·
CCN(CC)C(=O)c1c(Cl)nc(C)c([N+](=O)[O-])c1C	11.6	-21.0	-4.3	5.6	-0.6%
O=C(CSc1nc2ccccc2n1CCc1ccccc1)NC1CC1	3.9	-10.3	1.5	4.1	-1.8%
Cc1nonc1NC(=O)CSc1nnc(-c2ccoc2C)n1-c1cccc(Cl)c1	7.8	-30.6	3.7	-0.6	-8.3%
CCN(CC)c1ccc(S(=O)(=O)N2CCOCC2)cc1NC(=O)CSC(=S)N1CCCC1	·	·	4.8	7.1	·
Cc1cc(C)n(-c2nc3ccccc3n3nnnc23)n1	-1.6	-28.7	1.6	-9.5	14.4%
COc1cc(/C=C/C(=O)O)cc2c1OCCO2	7.9	·	-1.7	1.9	6.7%
O=C(NCc1cccc(C(F)(F)F)c1)C1CC(c2ccc(C(F)(F)F)cc2)=NO1 (stereo not given)	·	·	-0.4	73.2	8.1%
O=S(=O)(Cc1nnnn1-c1ccccc1)c1ccc(F)cc1	·	·	-1.6	-19.0	·
Cc1ccc(/C=N/NC(=O)c2csc(C)c2)o1	-4.9	-9.8	-0.7	1.7	-6.5%
CC(C)C(=O)Nc1c(-c2cccs2)c(=O)c2ccccc2n1C	2.5	-21.3	0.0	-6.3	-3.3%
COc1cccc(S(=O)(=O)Nc2noc3ccccc23)c1	·	·	1.4	-6.0	·
COc1ccc(OC)c(NC(=O)CCN2CCN(C/C=C/c3ccccc3)CC2)c1	·	·	3.9	-0.3	·
O=CN1CCN(C(=O)Cc2ccc([N+](=O)[O-])cc2)CC1	2.1	-28.7	0.7	5.6	23.8%
CCOC(=O)C1CCN(C(=O)/C=C/c2ccccc2OC)CC1	8.6	-22.2	0.4	-1.4	-7.9%
Cc1noc(C)c1CS(=O)(=O)c1ccc([N+](=O)[O-])cc1	0.6	·	-1.3	-0.7	4.7%
NC(=O)c1c(NC(=O)COC(=O)c2ccc(S(=O)(=O)Nc3ccccc3)cc2)sc2c1CCCC2	-6.4	·	1.4	10.8	2.0%
Cc1ccccc1NS(=O)(=O)c1ccc(-c2ccc(=O)[nH]n2)o1	·	·	-18.1	-7.2	·
CC(=O)NS(=O)(=O)c1ccc(NC(=O)c2ccccn2)cc1	14.7	·	2.5	-3.2	0.9%
CCOC(=O)c1c(-c2ccc(Cl)cc2)cn2ccccc12	-4.1	-40.2	-3.1	-7.3	2.8%
CCc1nc2ccc(C(=O)Nc3cccc(C(C)=O)c3)cc2nc1CC	-5.4	-10.2	0.2	0.1	3.7%
Cc1c([N+](=O)[O-])c(C(=O)N2CCCC2)nn1C	8.6	-34.2	1.5	-2.0	-2.9%

(more compounds)
SMILES	Arbovirus inh	YopH inh	RecA intein inh	Mtb bLac sens	Mtb H37Rv	others
CCCCn1c(N)c(N(CCOC)C(=O)C2CCN(S(=O)(=O)c3ccc(C)cc3)CC2)c(=O)[nH]c1=O	·	·	-4.4	-1.9	·
CCOC(=O)c1c(-c2ccccc2)csc1NC(=O)c1cc2ccccc2oc1=O	9.0	-22.6	1.6	98.5	<0.195µM*
O=C1c2ccccc2C(O)(Cc2ccccc2)N1c1ccc2c(c1)OCO2 (stereo not given)	-15.1	-29.6	12.1	-4.0	-10.5%
Cc1cc(NC(=O)CSCC(=O)N(C)Cc2c(F)cccc2Cl)no1	·	·	5.7	-18.9	·
O=C(N=C1SC2CS(=O)(=O)CC2N1c1cc(Cl)ccc1Cl)C1CCCO1 (stereo not given)	·	·	-1.5	-2.6	·
COc1ccc(C(=O)N2CCCC(CCC(=O)NCc3ccc(F)c(F)c3)C2)cc1F (stereo not given)	14.1	·	0.1	-5.1	-2.1%
O=C(O)Cc1ccc2c(c1)N(S(=O)(=O)c1cccs1)CC(C(=O)O)O2 (stereo not given)	·	·	-2.3	-7.0	·
CCn1c2ccccc2c2nnc(SCC(=O)Nc3c(C)n(C)n(-c4ccccc4)c3=O)nc21	-7.3	-28.4	2.6	-12.3	-13.0%
O=C(Cc1ccccc1)Nc1nc2ccccc2s1	4.8	-40.7	2.4	0.8	-5.4%
NC(=O)CN1N=C(c2cc(Cl)sc2Cl)CSC1=O	-0.3	-34.1	8.1	-1.6	-1.5%
O=C1CCCCC1C(O)c1ccc(Cl)cc1 (stereo not given)	·	·	3.9	0.1	3.8%
O=C1/C(=C/c2cccs2)SC(=S)N1C1CCS(=O)(=O)C1 (stereo not given)	·	·	-0.4	4.5	-5.8%
COC(=O)c1ccnc(SCC(=O)c2ccccc2)c1	4.0	-33.0	-0.6	90.0	15.8µM*
O=C(c1ccco1)N(CCCN1CCOCC1)c1nc(-c2ccc(Cl)cc2)cs1	-2.2	-34.4	9.9	6.1	11.3%
Cc1ccccc1C(=O)OC1OC(=O)C(Cl)=C1Nc1ccc(C(=O)O)cc1 (stereo not given)	-0.7	·	1.4	-3.2	-12.3%
COc1ccc(NC2CCCN(C(=O)CCN3Cc4ccccc4C3=O)C2)cc1 (stereo not given)	·	·	-3.1	-2.2	·
CCOc1ccccc1NC(=O)Cn1c(=O)n(CCC(=O)NC2CCCC2)c(=O)c2ccccc21	-3.4	-24.9	4.7	1.4	2.0%
Cc1ccc(S(=O)(=O)NC(CCc2ccccc2)CC(=O)C(C)(C)C)cc1 (stereo not given)	-12.0	-23.8	·	-2.0	0.8%

These rows are one share of the data; the hit share may differ from the screen's.
